Screens as filed in PubChem BioAssay.
Rango release inh: prevents RanGTP from dissociating the Rango-importin beta complex; Biochemical FRET Rango-importin beta, RanGTP-induced dissociation; AID 540253; O95149+P62826; 340,000 tested, 0.071% active; Potency, µM (series often up to 46.1 µM), inactives show at the highest dose activity change, negative = inhibition; active means falling FRET ratio curve, often poorly fitted, with flat reads before Ran was added; inconclusive means other falling curves, or compound fluorescence or quenching; inactive means flat or rising ratio curve;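 note: potency is the fitted concentration of half-maximal effect; % of control where 0% means no effect; nearly all actives have a fitted effect of over 45% in size; -100% = wells without RanGTP and RCC1; the record marks most hits as doubtful in a second field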
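Rango FRET biosensor (snurportin-1 IBB flanked by N-terminal EYFP and C-terminal CFP10) at 0.1 uM, with 0.25 uM importin beta in PBS, 1mM DTT, 0.02% Tween-20, 0.1% BSA. 0.6 uM Ran, 2mM GTP and 0.2 uM RCC1 were then added for 45 min at room temperature. Inhibition read as loss of FRET rise.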
miR-21 FLuc: miR-21 reporter, rising signal; 340,000 tested, under 10 active; Potency, µM (doses to about 38.3 µM), for the others: at the highest dose reporter change, positive = more light; HeLa miR-21 FLuc reporter, luciferase, 48 h; AID 2288; active = well fitted rising curve with a large enough effect; inconclusive = small, poorly fitted or top-dose-only effect; inactive = no such curve, though single readings can be large or run the other way;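 note: % of control where 0% means no effect; miR-21 action dims this reporter so a rising signal means less miR-21 action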
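HeLa cells endogenously expressing miR-21, stably carrying CMV-driven firefly luciferase with a downstream miR-21 binding site, 2000 cells/well. Titrations up to approximately 40 uM, 48 hours; luciferase luminescence read.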
GLA inh pH 4.5: inhibitors of human alpha-galactosidase A at pH 4.5; P06280; purified enzyme, 4-MU-alpha-Gal fluorescence, pH 4.5; activity change, negative = inhibition, % at 105 µM; 230,000 tested, under 10 active; inconclusive = small, poorly fitted or top-dose-only inhibition, or a rising curve; inactive = flat fitted curve, though single readings scatter; no compound was filed as active;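 note: 0% = full activity with enzyme and -100% = basal without enzyme; dose as in the result columns while the protocol names 77 µM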
Target sequence (P06280 whole entry, looked up): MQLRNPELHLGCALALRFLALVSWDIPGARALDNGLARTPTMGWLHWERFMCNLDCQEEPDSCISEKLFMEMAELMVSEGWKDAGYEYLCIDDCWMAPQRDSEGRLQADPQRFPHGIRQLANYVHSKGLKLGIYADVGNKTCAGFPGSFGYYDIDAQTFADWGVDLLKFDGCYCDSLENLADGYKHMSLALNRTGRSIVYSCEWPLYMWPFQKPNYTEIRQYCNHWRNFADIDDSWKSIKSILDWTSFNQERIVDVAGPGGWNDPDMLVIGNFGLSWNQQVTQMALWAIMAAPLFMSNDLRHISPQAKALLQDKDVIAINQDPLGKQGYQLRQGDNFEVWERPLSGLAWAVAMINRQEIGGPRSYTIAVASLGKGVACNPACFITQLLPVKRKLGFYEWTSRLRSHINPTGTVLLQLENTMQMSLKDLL
Rango-impB inh: prevents formation of the Rango-importin beta complex; Rango CFP/YFP FRET sensor + importin beta, 45 min; Potency, µM (top dose mostly 92.2 µM), inactives show top-dose inhibition of complex formation; 340,000 tested, 0.031% active; Q14974; AID 540263; active = rising FRET ratio curve, often small or poorly fitted; inconclusive = mostly compound fluorescence or quenching in the first reads; inactive = flat curves in all reads;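 note: potency is the fitted concentration of half-maximal effect; 0% = DMSO wells and 100% = buffer wells lacking importin beta; nearly all actives have a fitted effect of over 15% in size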
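FRET biosensor (snurportin 1 IBB flanked by EYFP and cerulean), 50 nM, with compound 5 min, then 0.125 microM importin beta in PBS, 1 mM DTT, 0.02% Tween-20, 0.1% BSA. CFP/YFP ratio read after 45 min at room temperature; pre-read flags interference.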
An asterisk follows results filed as active; ? = inconclusive; nt = not tested or not shown; [ ] = another dose, or the depositor's remark. An excerpt; rates above refer to the full screens.

A first look (15 entries):
(1) O=C(O)c1cccc(-c2ccc(/C=N/NC(=O)C3COc4ccccc4O3)o2)c1 (stereo unspecified)
(2) Cc1nc2ccccc2c(=O)n1-c1ccc(NS(=O)(=O)c2ccc(F)cc2)cc1
(3) O=C(CCC(=O)N1CCN(c2ccc(Cl)c(Cl)c2)CC1)c1ccccc1
(4) CN(C)C(=O)CCc1ccc2c3c([nH]c2c1)[C@]1(CCC2CCCC2)[C@@H](C(=O)N2CCOCC2)C[C@H](CC(=O)NCC24CC5CC(CC(C5)C2)C4)C(=O)N1CC3
(5) COC(=O)Cc1[nH]n(-c2nc3ccccc3s2)c(=O)c1C(C)=Nc1ccc(C)cc1
(6) Cc1cc(C)nc(N2CCN(CC(=O)NCc3ccccc3)CC2)n1
(7) FC(F)Sc1nc(-c2ccccc2)c(-c2ccccc2)n1C(F)F
(8) CC(C)NCC(O)COCc1ccc(Cl)cc1 (stereo unspecified)
Screen / compound no.	1	2	3	4	5	6	7	8
Rango release inh	8%	1%	?	-4%	2%	-9%	1%	16%
miR-21 FLuc	-30%	nt	-2%	nt	0%	-6%	-3%	-4%
GLA inh pH 4.5	3	nt	nt	nt	4	4	-7	-5
Rango-impB inh	3.0%	1.5%	3.1%	-1.6%	2.8%	-1.1%	3.5%	3.0%

(9) Cc1ccc(C)c(NCc2n[nH]c(=S)n2-c2ccccc2)c1
(10) CCN(c1ccccc1)S(=O)(=O)c1ccc(C(=O)Nc2cccc(C)n2)cc1
(11) O=C(Cn1c(=O)oc2ccccc21)Nc1ccc(Br)cc1
(12) O=C(COc1ccc(Br)cc1)N1CCc2ccccc21
(13) CCc1cc(C(=O)NCC(C)(C)N2CCOCC2)sc1C
(14) CC(=C/c1ccccc1)/C=N/Nc1nc(N2CCOCC2)nc(N2CCOCC2)n1
(15) CCN1CCN(C(c2ccccc2F)c2nnnn2Cc2ccc3c(c2)OCO3)CC1 (stereo unspecified)
Screen / compound no.	9	10	11	12	13	14	15
Rango release inh	-7%	-11%	-2%	-5%	-3%	0%	1%
miR-21 FLuc	0%	nt	1%	-33%	nt	-4%	-7%
GLA inh pH 4.5	-5	nt	nt	-8	nt	-12	-5
Rango-impB inh	1.0%	0.6%	-0.1%	-0.4%	?	-0.6%	6.0%

The list itself, from the first entry:
(1) O=C(O)c1cccc(-c2ccc(/C=N/NC(=O)C3COc4ccccc4O3)o2)c1 (stereo unspecified)
(2) Cc1nc2ccccc2c(=O)n1-c1ccc(NS(=O)(=O)c2ccc(F)cc2)cc1
(3) O=C(CCC(=O)N1CCN(c2ccc(Cl)c(Cl)c2)CC1)c1ccccc1
(4) CN(C)C(=O)CCc1ccc2c3c([nH]c2c1)[C@]1(CCC2CCCC2)[C@@H](C(=O)N2CCOCC2)C[C@H](CC(=O)NCC24CC5CC(CC(C5)C2)C4)C(=O)N1CC3
(5) COC(=O)Cc1[nH]n(-c2nc3ccccc3s2)c(=O)c1C(C)=Nc1ccc(C)cc1
(6) Cc1cc(C)nc(N2CCN(CC(=O)NCc3ccccc3)CC2)n1
Screen / compound no.	1	2	3	4	5	6
Rango release inh	8%	1%	?	-4%	2%	-9%
miR-21 FLuc	-30%	nt	-2%	nt	0%	-6%
GLA inh pH 4.5	3	nt	nt	nt	4	4
Rango-impB inh	3.0%	1.5%	3.1%	-1.6%	2.8%	-1.1%

(7) FC(F)Sc1nc(-c2ccccc2)c(-c2ccccc2)n1C(F)F
(8) CC(C)NCC(O)COCc1ccc(Cl)cc1 (stereo unspecified)
(9) Cc1ccc(C)c(NCc2n[nH]c(=S)n2-c2ccccc2)c1
(10) CCN(c1ccccc1)S(=O)(=O)c1ccc(C(=O)Nc2cccc(C)n2)cc1
(11) O=C(Cn1c(=O)oc2ccccc21)Nc1ccc(Br)cc1
(12) O=C(COc1ccc(Br)cc1)N1CCc2ccccc21
Screen / compound no.	7	8	9	10	11	12
Rango release inh	1%	16%	-7%	-11%	-2%	-5%
miR-21 FLuc	-3%	-4%	0%	nt	1%	-33%
GLA inh pH 4.5	-7	-5	-5	nt	nt	-8
Rango-impB inh	3.5%	3.0%	1.0%	0.6%	-0.1%	-0.4%

(13) CCc1cc(C(=O)NCC(C)(C)N2CCOCC2)sc1C
(14) CC(=C/c1ccccc1)/C=N/Nc1nc(N2CCOCC2)nc(N2CCOCC2)n1
(15) CCN1CCN(C(c2ccccc2F)c2nnnn2Cc2ccc3c(c2)OCO3)CC1 (stereo unspecified)
(16) Cc1ccc(C(O)(c2ccccc2)c2ccccc2C(C)N(C)C)c(C)c1 (stereo unspecified)
(17) OCCN1CCN(CC(O)COCC2COc3ccccc3O2)CC1 (stereo unspecified)
(18) CCCCc1ccc(NC(=O)CSc2nc(=O)n(CCN(CC)CC)c3c2CCCC3)cc1
Screen / compound no.	13	14	15	16	17	18
Rango release inh	-3%	0%	1%	-7%	7%	?
miR-21 FLuc	nt	-4%	-7%	0%	0%	nt
GLA inh pH 4.5	nt	-12	-5	-2	-5	nt
Rango-impB inh	?	-0.6%	6.0%	-2.9%	3.6%	-2.1%

(19) Nc1c(C(=O)O)sc2nc(-c3ccc(F)cc3)cc(-c3ccccc3)c12
(20) COc1cc(NC(=O)CCCNC(=O)Cn2cnc3sc4c(c3c2=O)CCCC4)cc(OC)c1OC
(21) O=C(C1CCC1)N1CCC(O)(c2cccc(F)c2)CC1
(22) CSc1n[nH]c(NCc2cccs2)n1
(23) O=C(N/N=C/c1cccnc1)c1ccc2c(c1)OCO2
(24) CCCCc1cc2c(c(NC(C)=O)n1)c(=O)oc1ccccc12
Screen / compound no.	19	20	21	22	23	24
Rango release inh	-21%	-3%	17%	5%	0%	nt
miR-21 FLuc	0%	5%	-1%	-7%	-21%	-15%
GLA inh pH 4.5	-6	nt	4	0	nt	-1
Rango-impB inh	?	3.6%	2.2%	-4.7%	0.7%	nt

(25) NC(=O)CCn1nc(-c2ccc(Cl)cc2)c2ccccc2c1=O
(26) COc1ccc(N(C)S(=O)(=O)c2cccc3nsnc23)cc1
(27) CC(=O)c1ccc(N2CCN(C(=O)c3ccco3)CC2)c(F)c1
(28) COc1ccc(N(CC(=O)NCc2ccc3c(c2)OCO3)S(=O)(=O)c2ccccc2[N+](=O)[O-])c(OC)c1
(29) CC1(C)OC(C)(C)/C(=C/Nc2ccccc2)C1=O
(30) Cc1cccc(-c2ncc(CN3CCC(CO)(CCCc4ccccc4)CC3)cn2)c1
Screen / compound no.	25	26	27	28	29	30
Rango release inh	-12%	2%	0%	12%	1%	-2%
miR-21 FLuc	-8%	0%	-37%	0%	-9%	12%
GLA inh pH 4.5	-3	7[21.1 µM]	-4	nt	-6	-5
Rango-impB inh	-0.6%	-0.1%	1.0%	0.2%	-3.1%	0.1%

(31) CCN(CC)c1ccc(C=Nc2ccc(N(C)C)cc2)c(O)c1
(32) Cc1ccc(NC(=O)COC(=O)CN2C(=O)NC(C)(C)C2=O)cc1S(=O)(=O)N1CCOCC1
(33) COc1cc(NC(=O)c2cc(-c3ccc(C)cc3)on2)cc(OC)c1OC
(34) COc1ccc(C)cc1S(=O)(=O)N(C)CC(=O)NC1CCCCCC1
(35) O=C(COc1ccc(Cl)cc1)N1CCN(c2ccc([N+](=O)[O-])c(N3CCCCC3)c2)CC1
(36) CC(=O)OCC(OC(C)=O)C(OC(C)=O)C(OC(C)=O)C(=O)Nc1ccccc1C (stereo unspecified)
Screen / compound no.	31	32	33	34	35	36
Rango release inh	?	-3%	0%	-5%	1%	3%
miR-21 FLuc	-29%	2%	-8%	2%	10%	-1%
GLA inh pH 4.5	-2	-6	nt	-5	-10	-5
Rango-impB inh	?	-0.5%	0.5%	-0.7%	-2.9%	?

Ordered by value in Rango release inh (ascending): 3 of the compounds above.
no.	SMILES	Rango release inh
32	Cc1ccc(NC(=O)COC(=O)CN2C(=O)NC(C)(C)C2=O)cc1S(=O)(=O)N1CCOCC1	-3%
33	COc1cc(NC(=O)c2cc(-c3ccc(C)cc3)on2)cc(OC)c1OC	0%
36	CC(=O)OCC(OC(C)=O)C(OC(C)=O)C(OC(C)=O)C(=O)Nc1ccccc1C (stereo unspecified)	3%

Following part:
(37) O=C(CCNC(=O)c1ccco1)Nc1cccc(C(F)(F)F)c1
(38) Cc1cc2cc(CN(Cc3ccc4c(c3)OCO4)Cc3nnnn3C3CCCC3)c(=O)[nH]c2cc1C
(39) COc1cc(/C=N/NC(=O)c2nc(C)cc(C)n2)ccc1O
(40) O=C(CSc1nnc(Cc2ccccc2)n1C1CCCCC1)N1CCOCC1
(41) COc1ccc(-n2c(Cc3cccn3C)nnc2SCC(=O)Nc2cc(C)cc(C)c2)cc1
(42) CCCc1c(C)nc2ccc(OC)cc2c1SCCC(=O)O
Screen / compound no.	37	38	39	40	41	42
Rango release inh	-13%	-7%	-19%	1%	0%	1%
miR-21 FLuc	3%	-3%	-22%	-28%	-9%	-14%
GLA inh pH 4.5	nt	-5	-4	2	-4	-9
Rango-impB inh	-4.1%	-2.0%	?	-0.1%	1.7%	2.9%

(43) O=C(CCCCC(=O)Nc1c(I)cc(I)c(C(=O)O)c1I)Nc1c(I)cc(I)c(C(=O)O)c1I
(44) COC(=O)c1ccc(=O)n(CC(=O)c2ccc(Cl)cc2)c1
(45) COc1cc(OC)cc(C(=O)NCCCNC(=O)c2ccccn2)c1
(46) COc1ccc(NC(=O)CN2CCOCC2)cc1
(47) CCN(CC)CC(C)(C)NS(=O)(=O)c1ccc(Cl)cc1
(48) Cc1nnc(SC(C)C(=O)NCC2CCCO2)n1-c1ccccc1 (stereo unspecified)
Screen / compound no.	43	44	45	46	47	48
Rango release inh	-3%	7%	6%	3%	1%	-7%
miR-21 FLuc	nt	-10%	-2%	-9%	1%	-3%
GLA inh pH 4.5	5	4	nt	-1	8	-4
Rango-impB inh	-1.8%	-0.7%	-4.2%	-0.2%	1.1%	-1.5%

(49) COc1ccc(/C=N\NC(=O)c2c(C)nc3ccc(Br)cn23)cc1
(50) COCC(=O)Nc1ccc(Nc2ccccc2)cc1
(51) CC(=O)Nc1ccc(S(=O)(=O)N2CCC(Oc3ccc(-n4cnnn4)cc3)CC2)cc1
(52) O=C(NC(Cc1ccccc1)C(=O)O)NC12CC3CC(CC(C3)C1)C2 (stereo unspecified)
Screen / compound no.	49	50	51	52
Rango release inh	-8%	12%	-11%	0%
miR-21 FLuc	28%	-15%	?	-10%
GLA inh pH 4.5	2	-1	nt	nt
Rango-impB inh	-2.3%	-2.9%	0.7%	-1.4%
